D2 PAM – human D2 receptor positive allosteric modulation. P14416. DiscoveRx D2 beta-arrestin cells, luminescence, 90 min; 100% = 57 uM dopamine signal. potentiation, % (test concentration not listed). hit rate 0.23% among 360,000. AID 624464; active = potentiation of 50% or more; inconclusive = 30% to 50%; inactive = 30% or less;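 note: compound concentration not given in the record; tested on top of an EC20 dose of dopamine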
Target sequence (P14416 whole entry, looked up): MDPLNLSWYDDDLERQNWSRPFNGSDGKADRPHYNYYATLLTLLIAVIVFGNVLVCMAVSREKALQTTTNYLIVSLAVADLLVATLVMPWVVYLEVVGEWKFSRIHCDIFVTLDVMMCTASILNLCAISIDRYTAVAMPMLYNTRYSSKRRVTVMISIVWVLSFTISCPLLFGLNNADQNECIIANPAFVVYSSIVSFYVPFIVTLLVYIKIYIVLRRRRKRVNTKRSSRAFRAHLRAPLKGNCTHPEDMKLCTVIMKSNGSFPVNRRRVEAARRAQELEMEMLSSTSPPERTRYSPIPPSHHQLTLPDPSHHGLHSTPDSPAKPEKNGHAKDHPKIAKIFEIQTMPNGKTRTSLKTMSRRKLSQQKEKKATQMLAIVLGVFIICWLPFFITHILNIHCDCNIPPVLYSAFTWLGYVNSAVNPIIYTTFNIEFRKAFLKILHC
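PathHunter D2 cells, attached overnight at 37 deg C, received compound in DMSO plus dopamine at EC20 (50 nM final) for 90 min at 37 deg C. Beta-arrestin recruitment was read as luminescence after 1 h with detection reagent at ambient temperature.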
Six1-Eya2 inh – blocks human Six1 binding to Eya2. Q15475+O00167. AlphaScreen GST-Six1/His-Eya2 binding, biochemical; stronger effect = lower value; control for the full effect not named in the record. activity change, % (no concentration beside the values). hit rate 0.56% among 360,000. AID 651725; in the data active = activity change below about -65%; inconclusive = about -30% to -65%; inactive = above about -30%; note: % is set by controls: 0 for no effect and ±100 for the full control effect; compound concentration not given in the record
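Six1/Eya2 binding was read as AlphaScreen signal after compounds were pinned into GST-Six1 plus His-tagged Eya2 (5X stock 250/500 nM) in pH 8.0 Tris/NaCl/TCEP buffer, beads added, then incubated 1 h, 37 C, dark.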
CtBP-E1A inh – blocks the CtBP interaction with E1A; hit rate 0.49% among 340,000; activity change, % (no concentration beside the values); AID 651724; AlphaScreen GST-E1A/His-CtBP binding, 1536-well; stronger effect = lower value; control for the full effect not named in the record; in the data active means activity change below about -65%; inconclusive means about -30% to -65%; inactive means above about -30%; note: % is set by controls: 0 for no effect and ±100 for the full control effect; compound concentration not given in the record
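Homogeneous bead-based format: GST-tagged E1A captured on glutathione donor beads, His-tagged CtBP on nickel acceptor beads; compounds precede bead addition by 2 h at 37 °C.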
D2 agonist – agonists of human D2 dopamine receptor (beta-arrestin) | P14416 | DiscoveRx PathHunter D2 beta-arrestin, luminescence, 90 min; 100% = 57 uM dopamine signal | activation, % (test concentration not listed) | hit rate 0.084% among 360,000 | AID 624465; in the data active = activation above about 40%; inconclusive = about 15% to 40%; inactive = below about 15%; note: compound concentration not given in the record; the text of the record calls up to 30% inactive
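Agonist mode: compounds alone added to overnight-plated D2 PathHunter cells for 90 min at 37 C, with 57 uM final dopamine (EC100) defining full response. Beta-arrestin recruitment detected by chemiluminescent reagent, read after 1 h at ambient temperature.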
gsp antagonist – antagonists of gsp mutant (McCune-Albright syndrome); gsp-mutant cells, cAMP HTRF, 30 min; control for the full effect not named in the record; AID 624288; hit rate 0.4% among 340,000; Potency, µM (doses to about 76.9 µM), without a hit: top-dose activity change, negative = inhibition, hits mostly inhibitors; active = falling curve of any shape with a large fitted effect; inconclusive = falling curve, mostly with a smaller effect; inactive = flat or rising curve; cell line not stated here;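 note: intracellular cAMP measured with PDE inhibitor Ro 20-1724 present during compound exposure; potency is the fitted concentration of half-maximal effect; % is set by controls: 0 for no effect and ±100 for the full control effect; nearly all actives have a fitted effect of over 65% in size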
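G418-selected cells were plated in DMEM/10% FBS for 16-24 h at 37C, then treated with compounds plus the PDE inhibitor […] (300 uM solution added) for 30 min at 37C. Intracellular cAMP was measured by HTRF after 30 min lysis at room temperature.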
gsp ag – agonists of gsp mutant (McCune-Albright syndrome) | hit rate 0.13% among 340,000 | Potency, µM (doses to about 76.9 µM), for the others: top-dose activation (cAMP increase), most hits filed as activators | gsp mutant cells, cAMP HTRF, 30 min; control for the full effect not named in the record | AID 624287; active = well fitted activation curve with a large enough effect; inconclusive = small, poorly fitted or top-dose-only effect, or another doubt; inactive = no such curve, though single readings can be large or run the other way; cell line not stated here;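 note: phosphodiesterase inhibitor Ro 20-1724 added with compounds to block cAMP breakdown; potency is the fitted concentration of half-maximal effect; nearly all actives have a fitted effect of over 60% in size; about a fifth of the inactives were tested at one dose only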
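Cells stably selected in G418 were plated at 2000/well, grown 16-24 hr, then given compounds in DMSO with the PDE inhibitor […] (300 uM solution added) for 30 min at 37C; cAMP was read by HTRF.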
* marks the source's active call; other numbers are inactive results; ? = inconclusive; . = no result given; [ ] = another dose, or the depositor's remark.

Order of results – D2 PAM | Six1-Eya2 inh | CtBP-E1A inh | D2 agonist | gsp antagonist | gsp ag
> CCCC1S/C(=N/N=C/c2ccc(C)cc2)N(Cc2ccc(OC)cc2)C1=O (centres undefined)
  5 | 2 | 0 | -0.6 | -10% | -5%
> O=C(Nc1c(-c2ccccc2)nc2ccc(Cl)cn12)c1cccs1
  -4 | 3 | -6 | 2.2 | -1% | 8%
> COc1ccc(C2=NS(=O)(=O)N(C)C(C(=O)N3CCOCC3)=C2)cc1OC
  -3 | 8 | 6 | 0.4 | 4% | -71%[inhibitor]
> NC(=S)NN=Cc1nccc2c(C(F)(F)F)cccc12
  -22 | -75* | -72* | -3.3 | . | 31%
> O=C(Nc1ccc(Cl)cc1)Nn1cnnc1
  -2 | 5 | 0 | 1.1 | 9% | -26%
> O=C1CCCN1c1ccc(C(=O)N(Cc2nnc(-c3ccc(Cl)cc3)o2)C2CC2)cc1
  -11 | -14 | 5 | -6.6 | -18% | 1%[15.4 µM]
> COc1cc(Br)c(CC(=O)O)cc1OC
  -7 | 8 | -2 | -0.5 | 10% | -38%[inhibitor]
> CCOC(=O)CSc1cc(C)c(C#N)c2nc3ccccc3n12
  -1 | 7 | 0 | 1.1 | 2% | 10%[15.4 µM]
> O=C(NCCc1ccccc1)Nc1nnc([C@@H]2C[C@H](O)[C@@H](CO)O2)s1
  -16 | -10 | 1 | 3.8 | . | .
> CC(C)(C)c1ccc(-c2nnc(SCC(=O)c3ccc4c(c3)OCCO4)o2)cc1
  12 | 4 | 0 | -1.9 | 1% | 3%
> CCc1ccc(N2CC(C(=O)Nc3ccc(F)cc3)CC2=O)cc1 (centres undefined)
  -4 | -2 | 11 | 1.4 | 1% | -1%[15.4 µM]
> Cc1cc(NCCc2ccc(Cl)cc2)n2ncnc2n1
  -3 | 2 | 0 | -0.7 | 3% | 10%
> COc1ccc(N2CCN(S(=O)(=O)c3ccc(C(=O)NCc4ccco4)cc3)CC2)cc1
  -3 | 0 | 17 | -0.3 | 3% | -2%
> CCOc1cc(C(=S)N2CCOCC2)ccc1OC(=O)c1cc(OC)c(OC)c(OC)c1
  -1 | 1 | 1 | -2.3 | 5% | -2%
> NC(N)=NN=C1c2ccccc2-c2ccccc21
  -20 | -19 | -10 | -0.6 | 11% | 25%
> CCn1c(SCc2ccc(Cl)cc2)nnc1-c1ccccc1
  -3 | 3 | 1 | -1.0 | -17% | -41%[inhibitor]
> Cc1nn(Cc2ccccc2)c2c1C(c1cccnc1)C(C#N)=C(N)O2 (centres undefined)
  -9 | 4 | 0 | -0.9 | -3% | 16%
> Cc1ccc(-c2csc(-c3c[nH]c4ccccc34)n2)c(C)c1
  22 | -7 | 0 | 0.2 | -8% | -44%[inhibitor]
> Cc1cccn2c(=O)c3cc(C(=O)NCCCn4ccnc4)n(C)c3nc12
  -6 | -17 | -19 | -1.2 | 4% | -29%
> CC(C)[C@H](NC(=O)[C@@H]1Cc2c([nH]c3ccccc23)C2c3ccccc3C(=O)N21)C(=O)N1CCC[C@@H]1C(=O)O (some centres undefined)
  -9 | 19 | 20 | 2.9 | 5% | .
> O=C1CCCc2c1cc(C(=O)Nc1ccc(Br)cn1)c(=O)n2-c1ccccc1
  55* | 0 | 4 | 11 | -14% | ?
> O=C(NCCc1ccccc1)C1CCC(=O)N1C1CCCC1 (centres undefined)
  -5 | 4 | 6 | -2.1 | 18% | -3%[15.4 µM]
> COc1cc(C2C(C#N)=C(N)Oc3n[nH]c(C)c32)cc2c1OCO2 (centres undefined)
  6 | -8 | -10 | -1.7 | 0% | -8%
> Cc1ccc(S(=O)(=O)N2CCC(=O)N(CCOCc3ccc(C(F)(F)F)cc3)CC2)cc1
  -3 | -2 | -3 | -2.2 | -10% | 11%
> CCNC(=O)COC(=O)c1cc(-c2ccc(OC)cc2)nc2ccccc12
  -5 | 6 | 6 | -2.4 | -18% | -5%
> CCCS(=O)(=O)C(=C(Nc1ccc(OC)cc1)Nc1ccc(OC)cc1)S(=O)(=O)CCC
  3 | -1 | 12 | -2.0 | -16% | -18%
> CCOC(=O)Oc1ccc2oc(C)c(C(=O)OCCOC)c2c1
  -9 | 8 | -5 | -1.9 | 8% | ?
> Cc1cccc(CCNC(=O)C2CCCN(S(=O)(=O)c3cccc4nsnc34)C2)c1 (centres undefined)
  -2 | -2 | -1 | -0.6 | -16% | ?
> CCOC(=O)C(C)Oc1cccc2c(=O)n(CC(=O)Nc3ccc4c(c3)OCCO4)ccc12 (centres undefined)
  -2 | -2 | 5 | -1.9 | 8% | -13%
> CCN(CC)C(=O)Cn1c(=O)n(CCCC(=O)NCc2ccc3c(c2)OCO3)c(=O)c2sccc21
  -6 | -25 | 0 | -7.9 | 9% | -1%[15.4 µM]
> O=C(Nc1cccc(OC(=O)c2cccnc2)c1)c1cccnc1
  -19 | -16 | 15 | -2.2 | 2% | -48%
> CCOC(=O)Cc1csc(SCC(=O)Nc2cccc(Cl)c2)n1
  -6 | 19 | 6 | 1.3 | -17% | -26%
> COc1ccccc1N1CCN(C(=O)c2oc3ccc(F)cc3c2C)CC1
  -17 | 20 | 4 | 0.3 | -21% | -6%[15.4 µM]
> CNS(=O)(=O)c1cccc(C(=O)OCC(=O)N2CC(C)OC(C)C2)c1 (centres undefined)
  1 | 5 | 3 | 6.0 | 8% | 14%
> Cc1csc2nc(O)c(C(=O)NC3CCCCCC3)c(=O)n12
  2 | 5 | 0 | 1.5 | -10% | 11%[15.4 µM]
> CCN(Cc1ccccc1)S(=O)(=O)CCNC(=O)c1ccc(OC)cc1
  3 | 0 | 1 | -1.2 | 2% | 2%[15.4 µM]
> O=C(Cc1ccc(N2CCNC2=O)cc1)N1CCCC(Nc2ccc(F)c(F)c2)C1 (centres undefined)
  -14 | -2 | -9 | -3.4 | 10% | 14%
> O=C(c1cc2ccccc2[nH]1)N1CCOCC1
  -8 | 3 | 9 | 1.5 | -2% | 20%
> CCC12CN(C(=O)c3ccc(OC)cc3)CC(CC)(CN(C(=O)c3ccc(OC)cc3)C1)C2=O
  -9 | 0 | 2 | -2.3 | -22% | -11%
> N#CN=C1SCCS1
  -18 | -5 | 5 | -3.6 | 9% | 13%
> CCOC(=O)C1=C(C)OC(N)=C(C#N)C1c1cccs1 (centres undefined)
  2 | 1 | -12 | 1.5 | -20% | -25%[15.4 µM]
> Cc1cc(C)cc(NC(=O)C2CCCN2C(=O)NC2CCCCC2)c1 (centres undefined)
  -33 | 4 | . | -3.8 | 4% | ?
> COc1ccccc1N1CCN(CCCCOc2ccc(F)cc2)CC1
  -39 | -7 | -7 | -2.8 | 21% | -21%
> Nc1cc(N)cc(C(=O)Nc2ccc3c(c2)C(=O)NC3=O)c1
  1 | -13 | -10 | 1.0 | -3% | -5%
> COc1ccc2oc(=O)c(C(=O)N3c4ccccc4CC3C)cc2c1 (centres undefined)
  6 | -2 | 3 | 11 | -3% | -1%
> COc1ccc(OC)c(NC(=O)CC(Cc2ccccc2OC)C(=O)O)c1 (centres undefined)
  24 | 0 | -11 | 1.0 | 0% | 15%
> Cc1nnc(SCC(=O)N2CCCC(C(=O)c3ccc(Cl)cc3)C2)o1 (centres undefined)
  -4 | -18 | 13 | -1.2 | 10% | 12%[15.4 µM]
> OCc1cn(-c2ccccc2)nc1-c1ccc(Br)cc1
  1 | 1 | 5 | 0.5 | -2% | 22%
> CCc1ccc(-c2nn(-c3cc(Cl)ccc3[N+](=O)[O-])c(=O)c3ccccc23)cc1
  -3 | 11 | 12 | -1.8 | 3% | 0%
> COc1cccc(CN2CC(C(=O)NCCn3ccc(C)n3)CCC2=O)c1 (centres undefined)
  -9 | 4 | 2 | -1.9 | -2% | ?
> FC(F)(F)c1ccccc1/C=N/Nc1ccccn1
  -12 | -2 | -9 | -5.5 | 4% | ?
> Cc1ccc(S(=O)(=O)NCc2ccc(C(=O)NC3CC3)cc2)cc1
  -5 | 10 | 9 | -1.8 | -6% | 22%[15.4 µM]
> CC(C)=CCc1c(O)cc2oc3c(CC=C(C)C)c(O)c(O)c(CC=C(C)C)c3c(=O)c2c1O
  0 | -8 | 1 | 2.9 | 32µM* | ?
> CCOC(=O)N1CCN(CC(O)COCc2cc(OC)c(OC)c(OC)c2)CC1 (centres undefined)
  5 | 9 | 1 | -0.9 | 6% | 4%
> O=C(CN1CCN(S(=O)(=O)c2ccc3ccccc3c2)CC1)Nc1ccc(N2CCOCC2)cc1
  -3 | -7 | . | -4.4 | 6% | 29%
> COc1ccc(OC)c(-c2c(C#N)c(N)nc3c2c(=O)nc2sccn23)c1
  0 | 10 | -2 | -1.8 | 9% | -11%[15.4 µM]
> CCN(CC)S(=O)(=O)c1ccc(Cl)c(NC(=O)CCCCl)c1
  0 | 5 | 0 | -1.0 | 2% | -11%[15.4 µM]
> Cc1ccc(C(=O)C(C)OC(=O)C2CC(=O)N(C3CCCCC3)C2)cc1 (centres undefined)
  -4 | 6 | 6 | -2.9 | -11% | 4%
> O=C(O)CNC(=S)N(Cc1cccs1)C1CCCCC1
  -15 | 24 | 9 | -1.9 | 0% | -3%
> Cc1ccc(OC(C)C(=O)Nc2cccc(S(=O)(=O)N3CCCCCC3)c2)cc1 (centres undefined)
  -12 | -8 | 3 | -1.9 | . | -49%[inhibitor]

(listing goes on)
Order of results – D2 PAM | Six1-Eya2 inh | CtBP-E1A inh | D2 agonist | gsp antagonist | gsp ag
> Cc1ccc(NC(=O)CN(C)C(=O)CSc2nnc(N)s2)cc1
  -5 | 4 | 0 | 3.0 | 7% | 9%
> CCOc1ccc(NC(=O)CN(C)Cc2ccc3c(c2)OCO3)cc1S(=O)(=O)N1CCCC1
  -1 | -4 | -6 | 6.4 | -21% | -15%
> COCCN(CC1CCCN(C2Cc3ccccc3C2)C1)C(=O)c1cccs1 (centres undefined)
  -21 | -2 | 2 | -1.4 | 4% | 3%
> COc1ccc(S(=O)(=O)N(C)C[C@H]2Oc3ccc(NS(=O)(=O)c4cccs4)cc3C(=O)N([C@H](C)CO)C[C@@H]2C)cc1
  -4 | 0 | 4 | -2.3 | -1% | -32%
> COC(=O)c1ccccc1SC1CC(=O)N(c2cccc(C)c2)C1=O (centres undefined)
  0 | -4 | 3 | -0.1 | 1% | -23%
> O=C(O)C1CCC(=O)N(C2CCCCC2)C1c1ccccc1 (centres undefined)
  -12 | 6 | 4 | -2.5 | -1% | 0%

With a hit mark in CtBP-E1A inh, of those listed so far:
Order of results – D2 PAM | Six1-Eya2 inh | CtBP-E1A inh | D2 agonist | gsp antagonist | gsp ag
> NC(=S)NN=Cc1nccc2c(C(F)(F)F)cccc12
  -22 | -75* | -72* | -3.3 | . | 31%

High-throughput results (PubChem)
